From PubChem
Ecoli rRNA inh = inhibits bacterial ribosomal RNA function over humanized ribosomes | GFP signal change (wild-type ribosome), % (no concentration beside the values) | E. coli WT GFP vs humanized-ribosome RFP mutants, fluorescence, 24 h; hits give low values; DMSO median 0, no signal -100 | AID 720706 | 350,000 compounds, 1.6% hits;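 active = significant combined selectivity score with lowered wild-type GFP, culture density cut under 30%, mutant RFP and density less affected; inactive = any of these conditions unmet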; note: one replicate is shown; some compounds called inactive have numbers as strong as hits
T cruzi repl = blocks replication of Trypanosoma cruzi | T. cruzi beta-gal in NIH3T3, luminescence, 90 h | inhibition, % (concentration not given with the values) | 300,000 compounds, 1.4% hits;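 active = mean inhibition across valid replicates above about 55%, limit read from the data; inconclusive = mean below that limit but half or more replicates reach it; inactive = mean below it, under half of replicates reach it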;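 note: signal also drops with host cell toxicity which is not excluded here; 0% = plate median of DMSO wells and 100% = zero luminescence signal; higher percent means less beta-gal luminescence so fewer parasites; stock transfer was 50 nL into about 50 µL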
Bfl-1 A1 inh = inhibitors of the anti-apoptotic protein A1, read as caspase activation; MEF A1-2A-BIM cells, Caspase-Glo 3/7 luminescence, 3 h; percent of clofoctol response, vehicle zero; caspase activation, % (no concentration beside the values); 330,000 compounds, 0.066% hits; AID 2462;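 active = over half of replicate activation scores above 10%, or exactly half above 10 with the replicate mean above 10; inconclusive = replicate mean below 10 yet half the replicates above 10; inactive = over half of replicates below 10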;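 note: wells of about 30 µL received 50 nL stock; many hits fall short of the cut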
Calb FLC = C. albicans growth modulation with fluconazole. C. albicans CaCi-2 (fluconazole-resistant clinical isolate) + fluconazole, Alamar Blue growth, 48 h. growth inhibition, % (concentration not given with the values). 300,000 compounds, 0.57% hits;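 active = most replicates above 75%; inconclusive = exactly half above 75%; inactive = most below 75%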;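 note: all wells also contain fluconazole at 8 µg/ml as a sub-toxic cotreatment; 0% = median of DMSO wells and 100% = median of geldanamycin control wells; wells of about 8 µL received 7.5 nL stock; the first replicate is given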
Vif A3G = inhibitors of Vif binding to APOBEC3G peptide, primary screen, biochemical, TR-FRET, GST-Vif 1-94, biotin-A3G peptide, dose response retest (AID 1117319). TR-FRET GST-Vif / biotin-A3G peptide binding; higher % means a stronger effect; test concentration not given here; strong numbers were not always called active. inhibition, %, or IC50 in µM where a hit was titrated. 260,000 compounds, 0.57% hits;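 active = above the screen mean plus three standard deviations and confirmed in dose response; inconclusive = results disagree or hit not tested in dose response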;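 note: Vif residues 1-94 fused to GST binding biotinylated APOBEC3G peptide 110-148; 0% = full assay without inhibitor and 100% = GST in place of GST-Vif; retest series ran down from 100 µM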
RanGTP-Impb inh = disruptors of Ran-importin-beta complex formation – biochemical, FRET, CFP-Ran, YFP-importin-beta, homogeneous, primary screen | cell-free CFP-Ran/YFP-importin-beta FRET ratio | inhibition, % (test concentration not listed) | 300,000 compounds, 1.1% hits | AID 2216;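 active = most replicates above 15%; inconclusive = exactly half above 15%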;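 note: 0% = DMSO wells and 100% = Ran loaded with GDP instead of GTP; wells of about 40 µL received 100 nL stock; the first replicate is given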
Beta cell apopt = beta cell apoptosis inhibition; INS-1E cytokine-induced death, ATP luminescence, 48 h; percent of positive-control rescue, neutral wells zero; protection from apoptosis, % (test concentration not listed); 300,000 compounds, 0.8% hits; AID 435005;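 active = all replicates at 75% or more, or half of them and the mean; inconclusive = half reach 75% but not the mean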;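 note: 0% = cytokine-treated negative control wells and 100% = positive control rescue; higher means more ATP so stronger rescue from cytokine killing; wells of about 40 µL received 100 nL stock; the first replicate is given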
MLL AF4-AF9 inh = MLL-AF4/AF9 protein interaction inhibition; AlphaScreen, biotin-AF4 peptide binding to FLAG-AF9; inhibition, % at 10 µM; P42568; 350,000 compounds, 0.47% hits;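 active = every replicate reaching a set inhibition limit, whatever the replicate mean, cut at about 25% in these data; inconclusive = mean inhibition reaches that limit but some replicates miss it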;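 note: 0% = plate neutral control median and 100% = total signal loss; the record names both 10 and 1 µM as test concentration; the first replicate is given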
Target sequence (P42568 whole entry, looked up): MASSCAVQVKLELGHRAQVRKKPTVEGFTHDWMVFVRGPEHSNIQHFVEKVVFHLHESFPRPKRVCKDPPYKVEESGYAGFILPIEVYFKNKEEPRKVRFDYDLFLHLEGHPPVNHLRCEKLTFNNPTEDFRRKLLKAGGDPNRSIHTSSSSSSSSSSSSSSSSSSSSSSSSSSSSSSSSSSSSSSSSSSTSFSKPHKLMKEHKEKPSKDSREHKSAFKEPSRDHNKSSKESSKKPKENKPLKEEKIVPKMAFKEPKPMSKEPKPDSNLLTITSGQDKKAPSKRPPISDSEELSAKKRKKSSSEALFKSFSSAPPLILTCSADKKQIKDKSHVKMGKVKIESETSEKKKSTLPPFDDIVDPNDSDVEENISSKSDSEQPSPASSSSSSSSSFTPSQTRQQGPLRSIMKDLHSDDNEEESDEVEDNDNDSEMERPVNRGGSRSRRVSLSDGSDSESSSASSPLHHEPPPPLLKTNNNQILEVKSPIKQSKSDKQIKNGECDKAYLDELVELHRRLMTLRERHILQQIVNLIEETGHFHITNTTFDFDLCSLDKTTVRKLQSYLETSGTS
Ecoli rRNA inh OD600 = also measured in Ecoli rRNA inh; calls as there; OD600 change, %; measured here: OD600 growth;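 optical density of the mix in the first replicate; 0 = DMSO median and -100 = no signal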
Ecoli rRNA inh RFP = recorded beside Ecoli rRNA inh, whose call it bears; RFP signal change, %; measured here: RFP humanized mutant strains;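 first replicate; 0 = DMSO median and -100 = no signal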
* hit, by the source's call; ? = inconclusive; nt = no result given; & = joins results of further samples.

The line under a structure holds: Ecoli rRNA inh	Ecoli rRNA inh OD600	Ecoli rRNA inh RFP	T cruzi repl	Bfl-1 A1 inh	Calb FLC	Vif A3G	RanGTP-Impb inh	Beta cell apopt	MLL AF4-AF9 inh
1	Cc1ccc(S(=O)(=O)N2CCN(C(=O)COc3ccc(NC(=O)c4ccco4)cc3)CC2)cc1
→ nt	nt	nt	11	-1.4	6	-1%&-5%	4.7	11	nt
2	CC(c1ccon1)N(C)Cc1cn[nH]c1-c1ccc(F)cc1F (stereo unspecified)
→ 4	4	-6.9	-2	0.6	-4	9%	-0.9	1	-5.4
3	COc1ccc(-c2[nH]ncc2CN(C)C(C)c2cccs2)c(F)c1 (stereo unspecified)
→ -4	-3	-4.7	15	-0.3	-13	-3%	1.7	-4	2.8
4	CCOC(=O)c1nc(-c2ccccc2)oc1N(C)C
→ nt	nt	nt	-7	-0.1	-5	0%	2.0	-3	nt
5	CCN(CC)CCC#CC(O)(c1ccccc1)c1ccccc1
→ nt	nt	nt	-11	0.8	2	14%	-2.4	5	nt
6	CCOc1ccc(N2CC(C(=O)Nc3ccc(N4CCOCC4)cc3)CC2=O)cc1 (stereo unspecified)
→ nt	nt	nt	11	-1.8	6	nt	1.1	-1	nt
7	CC(=O)c1ccc(NC(=O)c2onc(C)c2Cl)cc1
→ 6	2	-9.7	-3	-1.9	18	-8%	-3.4	nt	6.1
8	Cc1nn(C)c(NC(=O)c2ccc([N+](=O)[O-])cc2)c1Cl
→ 2	5	-1.9	-10	0.4	-1	?	6.1	1	-2.7
9	Cn1nnnc1SCC(=O)N1N=C(c2ccc(Cl)cc2)CC1c1ccco1 (stereo unspecified)
→ 8	17	4.4	nt	1.1	nt	nt	nt	-1	7.9
10	COc1ccc2c(CC(=O)OCC(=O)Nc3ccccc3[N+](=O)[O-])coc2c1
→ -24	-16	1.4	17	-0.4	8	nt	0.6	-3	-2.7
11	Cc1cc(C)cc(C(=O)N(CCc2ccccc2)C2=CC3CCC(C2)N3C)c1 (stereo unspecified)
→ 8	5	-0.8	4	1.8	-37	-1%	3.7	1	-6.3
12	COc1ccccc1Nc1ncccc1C(=O)O
→ nt	nt	nt	5	0.2	2	-1%	-5.0	-7	nt
13	CCc1cccc(N(C(=O)c2csnn2)C(C(=O)NC2CCCC2)c2cccnc2)c1 (stereo unspecified)
→ 4	6	1.9	0	0.3	-4	nt	4.1	-1	3.4
14	COc1ccc(-c2noc(=O)[nH]2)cc1
→ nt	nt	nt	-2	0.1	3	-3%	-2.8	nt	nt
15	Cc1n[nH]c(=S)n1/N=C/c1ccc(OCc2ccc(Cl)cc2)cc1
→ nt	nt	nt	-11	0.8	19	-6%	-2.2	0	nt
16	CNC(=O)CSc1nc2cccnc2n1C1CCCCC1
→ 8	6	-3.1	-4	-0.8	10	nt	-2.8	6	-19
17	CCN(C(=O)CSc1nncs1)c1c(N)n(Cc2ccccc2)c(=O)[nH]c1=O
→ nt	nt	nt	-18	-0.1	1	?	-7.5	1	nt
18	COCCCNC(=S)Nc1ccc(N2CCCCC2)cc1
→ 7	5	1.8	-17	-0.5	26	-2%	-3.7	-4	10
19	Cc1cc(=O)oc2c(C)c(OCC(=O)NC3CC(C)(C)NC(C)(C)C3)ccc12
→ 8	5	2.2	-13	2.2	1	nt	0.3	nt	-1.7
20	CCN(CCCNC(=O)C1CCC(=O)N1C1CCCC1)c1cccc(C)c1 (stereo unspecified)
→ nt	nt	nt	13	0.3	25	?	-0.1	1	nt

Next part
The line under a structure holds: Ecoli rRNA inh	Ecoli rRNA inh OD600	Ecoli rRNA inh RFP	T cruzi repl	Bfl-1 A1 inh	Calb FLC	Vif A3G	RanGTP-Impb inh	Beta cell apopt	MLL AF4-AF9 inh
21	O=[N+]([O-])c1ccc2nc(-c3ccc(OC(F)F)cc3)cn2c1
→ 5	-6	19	10	-2.4	-6	4%	-3.0	4	-2.5
22	CCCc1cc(=O)oc2cc(C)cc(OCC(=O)NC3CC3)c12
→ 6	-5	-3.2	-4	0.1	3	-5%	-0.7	-11	-0.5
23	O=C(c1ccc2c(c1)[nH]c(=S)n1c3ccccc3nc21)N1CCN(c2ncccn2)CC1
→ nt	nt	nt	-5	-0.7	14	-1%	1.7	-2	nt
24	O=C1C(Cc2ccccc2)Nc2ncnc(N3CCOCC3)c2N1Cc1ccc(Br)cc1 (stereo unspecified)
→ -6	-14	0.9	16	-1.5	11	nt	5.1	nt	3.2
25	Nc1ccc(S(=O)(=O)N2CCCC2)cc1
→ 2	8	-1.6	6	0.2	-5	26%	-1.8	nt	-1.8
26	O=C(O)CSCc1cnn(-c2ccccc2)c1-n1cccc1
→ nt	nt	nt	-5	0.8	30	3%	3.4	-6	nt
27	CCc1ccc(CN(C)C(=O)C2CCC(=O)N(CCc3ccc(OC)cc3)C2)nc1 (stereo unspecified)
→ -2	-1	-0.5	22	1.0	-2	nt	0.7	0	-5.2
28	COc1ccc(C2CC(=O)c3cc(OC)c(OC)cc32)cc1OC (stereo unspecified)
→ 6	2	-2.0	1	-0.6	-5	nt	5.8	-8	0.2
29	O=C(Nc1nc2c(F)cccc2s1)c1ccc([N+](=O)[O-])o1
→ 3	14	-2.3	46	-3.7	0	nt	4.9	7	?
30	CC(=O)c1ccc(NC(=O)C(C)Sc2nnc(C3CCCCC3)o2)cc1 (stereo unspecified)
→ -1	-2	1.3	3	-0.4	-8	nt	-0.9	2	0.6
31	CCc1ccc(N/C(SCc2cccc(F)c2)=C(/C#N)C(=O)NCc2ccco2)cc1
→ nt	nt	nt	57*	-0.5	-23	8%	0.3	26	nt
32	Cc1cccc(C)c1NC(=O)CN(C)C(=O)c1ccc2c(=O)n3c(nc2c1)CCC3
→ 13	20	0.7	nt	0.4	nt	-2%	nt	-3	-4.4
33	CSc1nnc(N2C(=O)C(O)=C(C(=O)c3ccco3)C2c2cccc(Cl)c2)s1 (stereo unspecified)
→ -6	-30	9.9	-15	-0.8	-3	-7%	-26	-3	-0.3
34	Cc1cc(C)c2c(-n3cccc3)c(C(=O)NNS(=O)(=O)c3ccccc3)sc2n1
→ nt	nt	nt	0	0.2	6	-8%	3.6	4	nt
35	CSc1ccc(NC(=O)NCc2ccccc2)cc1
→ 6	-7	-1.5	-10	0.5	-16	-1%	1.7	-4	-0.8
36	Cc1ccc(-n2nc3c(=O)n(CC(=O)NCc4cccs4)nc(C)c3c2C)cc1
→ 9	3	0.5	-6	1.5	2	nt	5.2	4	-0.6
37	O=C(NCCS(=O)(=O)NC1CCCCC1)c1ccccc1
→ 11	4	-0.7	-6	0.7	-1	nt	-3.8	-3	-0.6
38	O=C(O)C1CCCN1S(=O)(=O)c1ccc2c(c1)CCC2 (stereo unspecified)
→ 10	12	5.8	3	-0.3	7	6%	6.1	-5	-1.7
39	Cc1[nH]c2ccccc2c1SCC(=O)N1CCN(c2ccccc2)CC1
→ 0	-32	-4.9	-3	1.1	19	3%	-4.7	-1	11
40	COc1ccc2c(c1)C(c1ccccc1)NC(=O)C2 (stereo unspecified)
→ 16	18	3.0	-8	1.0	-1	nt	-0.8	4	-13

(cont.)
The line under a structure holds: Ecoli rRNA inh	Ecoli rRNA inh OD600	Ecoli rRNA inh RFP	T cruzi repl	Bfl-1 A1 inh	Calb FLC	Vif A3G	RanGTP-Impb inh	Beta cell apopt	MLL AF4-AF9 inh
41	COC(=O)CCC(=O)Nc1nccs1
→ 8	12	-0.9	-10	-0.2	3	?	-2.5	-5	-1.2
42	CC(C(=O)NC1CCCC1)N(c1ccc(Oc2ccccc2)cc1)S(C)(=O)=O (stereo unspecified)
→ -1	-6	0.5	3	0.2	-41	nt	4.6	-3	-0.3
43	CCOc1ccc(CNC(=O)C2CCCN(S(C)(=O)=O)C2)cc1OC (stereo unspecified)
→ nt	nt	nt	-4	0.4	2	-2%	-1.6	-1	nt
44	COc1ccc(NC(=O)Nc2ccon2)cc1OC
→ 3	9	0.8	-14	1.3	9	nt	1.4	-3	0.4
45	CCCCn1c(-c2nn(C)cc2Cl)n[nH]c1=S
→ nt	nt	nt	-11	0.9	4	2%	1.4	-1	nt
46	CCN(CC(=O)Nc1c(F)cccc1F)C(=O)CCc1nc2cc(S(=O)(=O)N3CCOCC3)ccc2n1C
→ 8	15	0.7	-3	0.1	6	-1%	-2.0	0	0.0
47	CC(=O)Nc1ccc(SCC(=O)Nc2oc(C)c3c(C)n[nH]c(=O)c23)cc1
→ 15	14	-1.4	-3	0.3	4	-4%	-0.5	3	-3.0
48	Cc1ccc2nc(COC(=O)c3cnccn3)cc(=O)n2c1
→ 7	18	-3.4	nt	0.2	nt	nt	nt	-2	-3.4
49	CCc1ccc(S(=O)(=O)Nc2cc3c(cc2N2CCOCC2)n(C)c(=O)c(=O)n3C)cc1
→ 2	1	1.3	12	-0.1	-37	nt	?	3	1.7
50	COc1ccc(NC(=O)c2cccc(N3C(=O)C4C5CCC(C5)C4C3=O)c2)cc1 (stereo unspecified)
→ -5	-6	-0.3	1	1.6	7	4%	-0.5	nt	-18
51	O=C(Cn1c(=O)c2c(ncn2Cc2ccccc2)n(Cc2ccccc2)c1=O)N1CCc2ccccc21
→ 6	3	-2.2	24	1.0	14	1%	-6.9	-1	4.6
52	CC(=O)N/C(=C\c1ccccc1)C(=O)OCc1cc(C)ccc1C
→ 2	7	-1.3	14	2.1	-10	nt	5.1	1	-9.7
53	O=C(O)c1cccc(N(CCO)CCO)c1
→ 6	6	-2.6	3	1.0	7	4%	3.1	-7	3.6
54	COc1cccc(OCC(=O)NC2CCCCCC2)c1
→ -1	-11	5.0	nt	0.6	nt	-2%	nt	0	1.9
55	CC1CCCCN1CC(=O)Nc1sccc1C#N (stereo unspecified)
→ nt	nt	nt	-7	-0.2	7	?	-1.6	-5	nt
56	Cn1c(=O)c2c(nc(N3CCCCCC3)n2CCSc2nc3ccccc3o2)n(C)c1=O
→ -1	-22	-5.5	10	nt	0	?	?	-7	3.7
57	O=C1NC2(CCCCC2)N=C1c1ccc(Br)cc1
→ nt	nt	nt	-5	0.2	1	2%	3.9	-2	nt
58	O=C(c1nc2ccccn2c1CNCCCn1ncc2ccccc21)N1CCOCC1
→ 10	8	2.5	-10	-0.9	0	9%	2.5	0	0.8

This is a subset; the hit share may differ from the screen's.
